High-throughput results (PubChem)
Mtb growth: M. tuberculosis H37Rv growth inhibitors, H37Rv strain (AID 1626) | M. tuberculosis H37Rv growth inhibition; higher % means a stronger effect | inhibition, % at 10 µM; hits with a dose series show IC50 in µM | 0.95% of 220,000 active;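 active means confirmed in a dose series; inconclusive means inhibition above 80% but not taken into the dose series; inactive means below 80% or under 30% at every dose of the series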;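 further: bacteria incubated seven days before Alamar blue readout; 0% = bacteria only wells and 100% = bacteria with antibiotic wells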
Arbovirus anti: antivirals against arbovirus infection, primary screen, cell-based, full library, 10K replicate subset | AID 1251, 2008 | 0.37% of 200,000 active | arbovirus infection cell-based antiviral screen | inhibition, % at 10 µM;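 active means inhibition from about 30%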;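 further: bluetongue infection of BSR cells; cell survival read as ATP light after 72 h; 0% = infected wells without compound and 100% = uninfected wells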
YopH PTP inh: YopH tyrosine phosphatase inhibitors, primary screen, biochemical, fluorescence Ex485/Em525. inhibition, %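 (about 10 µM by stock and volumes)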. 0.16% of 140,000 active. YopH tyrosine phosphatase [Yersinia enterocolitica];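 active means inhibition of 50% or more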;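 further: controls were vehicle for no effect and minimum signal wells for full effect; inactives centre near -20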
Mtb bLac sens: beta-lactam sensitization of Mtb H37Rv, H37Rv. inhibition, % at 25 µM. M. tuberculosis H37Rv growth with meropenem, percent inhibition; hits of this screen are not shown here. 0.27% of 330,000 active;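 active means about 74% or more and at least 40 points above the plate without the antibiotic, then above 30% in a dose series; inconclusive means first-round hits that could not be retested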;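 further: growth measured after seven days incubation then overnight dye step; 0% = bacteria only wells and 100% = bacteria with antibiotic; twin plates without the antibiotic show which effects depend on it; some results filed as inactive read as strong as hits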
RecA intein inh: Mtb RecA intein splicing inhibitors, primary screen, biochemical, fluorescence, HTS; Protein RecA (Mycobacterium tuberculosis (strain ATCC 25618 / H37Rv)), P9WHJ3; cell-free RecA intein splicing; inhibition, %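 (about 9 µM by stock and volumes)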; 0.75% of 290,000 active; AID 2221, 2009; in the data active means inhibition above about 30%; inconclusive means no clear call, values can overlap the other calls;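 further: 0% = vehicle wells and 100% = reference inhibitor control wells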
Target sequence (P9WHJ3 whole entry, looked up): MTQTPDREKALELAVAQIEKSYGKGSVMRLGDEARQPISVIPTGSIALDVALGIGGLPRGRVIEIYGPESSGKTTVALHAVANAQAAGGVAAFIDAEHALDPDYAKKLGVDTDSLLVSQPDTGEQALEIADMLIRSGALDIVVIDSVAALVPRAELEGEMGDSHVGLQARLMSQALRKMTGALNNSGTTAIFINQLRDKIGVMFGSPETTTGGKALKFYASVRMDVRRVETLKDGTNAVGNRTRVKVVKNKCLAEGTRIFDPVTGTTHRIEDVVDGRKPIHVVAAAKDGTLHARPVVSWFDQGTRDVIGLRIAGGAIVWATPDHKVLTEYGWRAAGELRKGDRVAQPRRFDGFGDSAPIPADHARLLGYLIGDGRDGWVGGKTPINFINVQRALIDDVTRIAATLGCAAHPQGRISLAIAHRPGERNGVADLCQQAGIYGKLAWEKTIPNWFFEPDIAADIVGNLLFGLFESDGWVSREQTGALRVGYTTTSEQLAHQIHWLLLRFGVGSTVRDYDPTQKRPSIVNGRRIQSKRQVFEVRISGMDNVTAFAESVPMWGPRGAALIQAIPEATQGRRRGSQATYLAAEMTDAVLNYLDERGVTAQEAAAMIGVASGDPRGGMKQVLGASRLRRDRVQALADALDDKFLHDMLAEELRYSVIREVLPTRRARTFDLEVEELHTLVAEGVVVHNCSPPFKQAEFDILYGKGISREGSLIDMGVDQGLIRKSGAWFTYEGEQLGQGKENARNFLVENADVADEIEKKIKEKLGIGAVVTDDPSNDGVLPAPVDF
Arbovirus anti repeat: also measured in Arbovirus anti; calls as there; inhibition, %; measured here: 10K subset replicate screen; many hits read low in the repeat;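 first of two repeat runs on a subset; 0% = infected and 100% = uninfected wells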
* hit, by the source's call; ? = inconclusive; . = no result given. Only part of the results is shown. The share of hits here may be higher or lower than overall.

The first 2 entries as a preview:
SMILES	Mtb growth	Arbovirus anti	YopH PTP inh	Mtb bLac sens	RecA intein inh	others
Cc1ccc(NC(=O)Nc2ccc(Cl)c(Cl)c2)nc1	.	.	.	-8	-0.2
CCOC(=O)C1=C(C)NC(=O)NC1/C=C/c1ccccc1 (stereo not drawn)	5%	-2	-52	8	7.3

The whole of this part (from the top)
SMILES	Mtb growth	Arbovirus anti	YopH PTP inh	Mtb bLac sens	RecA intein inh	others
Cc1ccc(NC(=O)Nc2ccc(Cl)c(Cl)c2)nc1	.	.	.	-8	-0.2
CCOC(=O)C1=C(C)NC(=O)NC1/C=C/c1ccccc1 (stereo not drawn)	5%	-2	-52	8	7.3
O/N=C\c1cnc(N2CCN(c3ccccc3)CC2)s1	.	.	.	2	-2.1
COc1cccc(NC(=O)CSc2nc3ccccc3n2C)c1	4%	3	.	-4	4.2
COc1ccc(-c2nnc3c4ccccc4c(C)nn23)cc1S(=O)(=O)N1CCN(CCO)CC1	-4%	-4	-12	-8	-0.2
CN1C(=O)C2C(c3ccc(N(C)C)cc3)NN(Cc3ccccc3)C2C1=O (stereo not drawn)	3%	0	.	-5	-6.0
CCOC(=O)COc1ccc(S(=O)(=O)Nc2ccc3c(c2)OCCO3)cc1	7%	1	-33	5	0.9
Cc1c(NS(=O)(=O)c2ccc(C(=O)NCc3ccccc3)cc2)c(=O)n(-c2ccccc2)n1C	17%	5	.	3	-4.1
O=C(CN1CCN(c2ccccc2)CC1)Nc1ccc2c(c1)CCC2	56%	-3	-18	0	2.2
CCN(C(=O)c1cc2c(C)nc3ccccc3c2o1)c1cc(Cl)ccc1OC	5%	.	.	1	14
COC(=O)c1ccccc1NC(=O)c1cc(-c2cccs2)on1	-6%	-3	-28	-6	-0.8
CC(C)[C@H](NC(=O)C1CC(=O)N(c2ccc3c(c2)OCO3)C1)C(=O)NC1CCCC1 (stereo partly drawn)	.	.	.	0	-2.8
CC(=O)NC(=S)NNC(=O)CCc1ccccc1	-1%	-1	.	-7	-1.6
Cn1c(=O)c(C(=O)CN2CCCc3ccccc32)c(N)n(Cc2ccccc2)c1=O	-6%	2	-29	-6	0.3
COc1ccc(C(=O)Nc2cccc(OC(=O)c3ccco3)c2)cc1	.	.	.	-6	20
Cc1ccc(OCC(=O)Nc2ccccc2Sc2ccccc2)c([N+](=O)[O-])n1	9%	-11	-27	-3	0.0
Cc1ccc(CSCc2ccc(C(=O)O)o2)cc1	.	.	.	-2	-0.1
CCC(c1nnnn1Cc1ccco1)N(Cc1cc2cc(OC)ccc2[nH]c1=O)C1CCCCC1 (stereo not drawn)	0%	-6	-22	-1	31*
Cc1noc(C)c1S(=O)(=O)Nc1ccc(C(=O)NCCc2ccccc2)cc1	-1%	1	17	6	.
O=[N+]([O-])c1cccc(C=Nc2cccc3ccccc23)c1O	.	.	.	25	38*
CCOC(=O)COc1ccc(S(=O)(=O)N2CCc3ccccc3C2)cc1	?	3	-33	99	3.8
CCCCn1c(=O)c2ccccc2c2ccccc2c1=O	2%	-5	-65	2	.
Cc1c2c([n+]3n1CCC3)CC(C)(C)CC2=O	-1%	-3	-26	-2	3.7
CCC1CCCCN1CCCNS(=O)(=O)c1ccc2c(c1)oc(=O)n2C (stereo not drawn)	.	.	.	?	-7.9
COc1ccc(C2OC(=O)CC2C(=O)NCc2ccccc2Cl)cc1OC (stereo not drawn)	2%	17	.	-7	-1.9
CC/C(=N\O)c1ccc(OC)c(OC)c1	-5%	8	-15	-10	2.0
COc1ccc(CCN=Cc2c(C)[nH]n(-c3ccc([N+](=O)[O-])cc3)c2=O)cc1OC	4%	-5	.	-4	2.4
COc1ccc(-c2cn3cccnc3n2)cc1Br	-7%	4	-23	6	-2.7
COc1ccc(C(=O)NCC(=O)N/N=C/c2c(C)[nH]c3ccccc23)cc1OC	-9%	.	.	-3	0.7
Cc1cc(C)n2nc(SC(C)C(=O)N3CCC4(CC3)OCCO4)nc2n1 (stereo not drawn)	-5%	6	-4	0	1.5
Cc1ccc(CCS(=O)(=O)c2ccc(C(C)(C)C)cc2)cn1	.	.	.	-9	-0.4
CCCOc1ccc(CNC(=O)C2CCN(c3nn4c(=O)cc(C)nc4s3)CC2)cc1	.	.	.	3	-0.4
Cc1c(Br)c([N+](=O)[O-])nn1C(C)C(=O)N1CCc2ccccc2C1 (stereo not drawn)	.	.	.	-3	5.5
O=C(COc1cc(=O)n2c(n1)SCCC2)c1ccccc1	2%	3	-32	1	-2.4	Arbovirus anti repeat=2
CCC(=O)N(Cc1cc(=O)[nH]c2ccccc12)c1ccc(OC)cc1	.	.	.	-3	-2.5
Cc1ccc(C)n1-c1ccc(C(=O)NC2CCN(Cc3ccccc3)CC2)cc1	1%	-15	-22	-2	0.8
CCn1c(CNC(=O)c2ccccc2)nnc1SCC(=O)N1CCN(c2ccccc2)CC1	-11%	7	-21	-3	-4.6
COC(=O)C1=C(N)Oc2cc(C)n(C)c(=O)c2C1c1ccc(Cl)cc1 (stereo not drawn)	-5%	-1	-26	-1	-1.5
COc1cc2[nH]c(C(=O)Nc3ccc(F)cc3)cc2c(OC)c1OC	.	.	.	1	1.0
CC(=O)c1cc2c(cc1NC(=O)Cn1nc(C)c(C)c(C#N)c1=O)OCO2	.	.	.	53	-0.4
COC(=O)C(N)CCCCN (stereo not drawn)	-15%	.	.	9	-0.1
CCc1ccc(-c2cc(C(=O)NCc3ccccn3)c3ccccc3n2)cc1	7%	7	-25	83	0.5
Cc1ccc(/C=C2\SC(=S)N(NS(=O)(=O)c3ccc(C)cc3)C2=O)cc1	.	.	.	10	8.4
Cc1ccccc1Cn1cc(NC(=O)c2noc3c2CC(C(C)(C)C)CC3)cn1 (stereo not drawn)	-3%	-7	-12	.	4.5
CC1CCN(c2nc3ccc(C(=O)N4CCN(Cc5ccc6c(c5)OCO6)CC4)cc3s2)CC1	.	-22	-11	63	7.5
CCOc1ccc(NC(=O)NC(=O)N(C(C)C)S(C)(=O)=O)cc1	47%	-2	.	-9	3.5
CCOC(=O)C1CCN(S(=O)(=O)c2ccc(C)c(C)c2)CC1	-9%	4	.	-2	3.6
O=C(NCc1ccc(Cl)cc1)c1ccncc1	.	.	.	-3	-0.6
CCn1c(SCC(=O)NC2CC2)nnc1C(C)Oc1ccccc1 (stereo not drawn)	.	.	.	-18	-0.6
CCOc1ccc(NC(=O)CN(C)C(=O)C2=COCCO2)cc1OCC	.	.	.	-12	-2.7
CC(=O)NCc1ccc(C(=O)CCl)cc1	2%	1	.	3	23
COc1cc(OC)cc(C(=O)Nc2cccc(NC(=O)c3ccccc3)c2)c1	.	.	.	7	4.2
CC(=O)c1cc(CN2CCN(C(C)C)C(CCO)C2)cs1 (stereo not drawn)	4%	2	.	6	-1.2
CCCCOC(=O)CSc1nc(N)c(C#N)c(-c2ccc(OC)cc2)c1C#N	1.1µM*	1	-42	100	-2.8
Clc1ccc(-c2ccnc(Oc3cc(Cl)ccc3Cl)n2)cc1	3%	-10	2	-14	0.9
O=C(CN1C(=O)NC2(CCCCCC2)C1=O)c1ccccc1	.	.	.	-10	1.6
CSc1ccc2nnc(-c3cccc(F)c3)n2n1	-11%	-2	-9	11	-0.1
CC1CCC(N2CCNCC2)CC1 (stereo not drawn)	-1%	-2	.	0	-3.5
C=CCn1c(CNC(=O)c2ccccc2F)nnc1SCC(=O)N1CCOCC1	.	.	.	9	1.7
CCCCn1c(=O)c(CCC(=O)OCC(=O)Nc2cccc3ccccc23)nc2ccccc21	8%	4	-32	3	6.8

(listing goes on)
SMILES	Mtb growth	Arbovirus anti	YopH PTP inh	Mtb bLac sens	RecA intein inh	others
Cc1cc(F)ccc1NC(=O)C(C)n1c2ccccc2c2nc(=O)cc(C)n21 (stereo not drawn)	1%	.	.	-5	-2.7
CCN(Cc1ccccc1)S(=O)(=O)c1c(C)[nH]c(C)c1C(=O)N1CCCCC1	.	.	.	-1	1.1
Cc1ccccc1Cn1nc(C)c(NC(=O)c2noc3c2CCc2ccccc2-3)c1C	60%	-2	-20	9	10	Arbovirus anti repeat=-6
Nc1cc(Cl)nc(N/N=C/c2c(O)ccc3ccccc23)n1	?	-25	-32	77	5.7
CC(C)(C)OC(=O)N1CCC(c2c(C(=O)NCC3CCN(C4CCCC4)C3)cnn2-c2cccc(Cl)c2)CC1 (stereo not drawn)	.	.	.	10	-0.2
CC(C)c1nc(-c2ccccc2)c(-c2ccccc2)[nH]1	0%	-3	-3	-2	2.7
CN1C2CCC1/C(=C/c1ccccn1)C(=O)/C2=C\c1ccccn1	?	-36	-39	99	.
Cc1cc(C)cc(Nc2cc(=O)n(C3CCCCC3)c(=O)[nH]2)c1	-6%	20	-27	0	-1.2
CCOC(=O)c1cc(-c2ccccc2)nc2nc(N(CC)CC)sc12	.	.	.	24	-483
CS(=O)(=O)Nc1cccc(C2=NN(C(=O)c3ccco3)C(c3cccs3)C2)c1 (stereo not drawn)	.	.	.	-10	0.7
O=C(CCn1c(=O)c2ccccc2n(CC(=O)NCCC2=CCCCC2)c1=O)NCc1ccco1	5%	-4	-5	0	1.2
Cn1c(N)c(C(=O)COC(=O)c2ccnc3ccccc23)c(=O)n(C)c1=O	-14%	2	-15	3	1.8
COc1cc(O)c(C(CC(=O)N2CCN(c3ccccc3)CC2)c2ccc(N(C)C)cc2)c(OC)c1 (stereo not drawn)	-4%	.	.	-10	0.9
CCN(CC)c1ccc2cc(C(=O)NNC(=O)c3ccc(S(=O)(=O)N4CCCCC4)cc3)c(=O)oc2c1	2%	-4	-15	1	-7.1
CC(=O)N1CCN(C(=S)c2ccc(Cl)cc2)CC1	-5%	-9	-23	1	-1.1
COC(=O)c1sccc1NS(=O)(=O)c1ccc(F)cc1F	.	.	.	-9	2.8
O=C(NC(=S)Nc1ccccc1Cl)c1ccco1	.	.	.	7	0.2
O=C(NCc1ccco1)c1noc2c1CCCCC2	1%	-8	-4	-16	-1.6
Cn1nnnc1SCC(=O)NC(=O)NCc1ccccc1	6%	17	-4	-2	0.2
CCOc1ccc(NC(=O)C2C3C=CC4(O3)C2C(=O)N(Cc2cccnc2)C4C(=O)NC2CCCCC2)cc1 (stereo not drawn)	.	.	.	-5	-0.2
CN(CCC#N)C(=O)COC(=O)c1cccnc1Nc1ccccc1F	-1%	17	.	3	.
CCOC(=O)N1CCC(NC(=O)c2csc3c2CCCC3)CC1	12%	-4	-41	-10	1.6	Arbovirus anti repeat=-1
CN(C)/C=C/C(=O)c1ccc(Cl)cc1Cl	3%	3	.	1	1.7
Cc1c(C(=O)NC(Cc2ccccc2)c2nc3ccccc3[nH]2)cccc1[N+](=O)[O-] (stereo not drawn)	-2%	33*	-12	3	-0.5
CC(C)[C@H](NC(=O)N1CCn2c1nc1ccccc12)C(=O)NCc1ccc2c(c1)OCO2	.	.	.	2	-2.2
Cc1c(-c2cccc(NC(=O)c3ccco3)c2)nc2ncccn12	2%	-6	.	-3	-8.9
O=C(c1ccco1)N(Cc1cc2ccccc2[nH]c1=O)C1CCCCC1	1%	3	-58	-6	-2.6
CC(OC(=O)c1ccc(Cl)c(S(N)(=O)=O)c1)C(=O)NCc1ccc2c(c1)OCO2 (stereo not drawn)	.	.	.	-11	0.8
O=C(c1ccc(Br)s1)N1CCc2ccccc2C1	.	.	.	-9	3.0
O=C(O)CCc1ccc(-c2ccccc2)n1-c1ccc(C(=O)O)cc1	.	.	.	4	-0.9
CC(C)(C)c1ccc(Oc2ccc(N)cn2)cc1	1%	.	.	-7	0.3
CC1=C(C(=O)Nc2cccc(C)n2)C(c2ccc3c(c2)OCO3)C2=C(CC(c3ccco3)CC2=O)N1 (stereo not drawn)	0%	-13	-9	.	.
Cc1onc(-c2ccccc2)c1C(=O)N(Cc1ccccc1)C(C)C	.	.	.	-1	-1.8

Random excerpt: 5 records from the list.
SMILES	Mtb growth	Arbovirus anti	YopH PTP inh	Mtb bLac sens	RecA intein inh	others
CN(C)/C=C/C(=O)c1ccc(Cl)cc1Cl	3%	3	.	1	1.7
Cc1onc(-c2ccccc2)c1C(=O)N(Cc1ccccc1)C(C)C	.	.	.	-1	-1.8
Cc1c(C(=O)NC(Cc2ccccc2)c2nc3ccccc3[nH]2)cccc1[N+](=O)[O-] (stereo not drawn)	-2%	33*	-12	3	-0.5
CC1=C(C(=O)Nc2cccc(C)n2)C(c2ccc3c(c2)OCO3)C2=C(CC(c3ccco3)CC2=O)N1 (stereo not drawn)	0%	-13	-9	.	.
CCOc1ccc(NC(=O)C2C3C=CC4(O3)C2C(=O)N(Cc2cccnc2)C4C(=O)NC2CCCCC2)cc1 (stereo not drawn)	.	.	.	-5	-0.2
